# Rango complex inh: prevents formation of the Rango-importin beta complex; Q14974; Rango CFP/YFP FRET sensor + importin beta, 45 min; Potency, µM (doses to about 92.2 µM), for the others: at the top dose inhibition of complex formation; 340,000 tested, 0.031% active; AID 540263; active = rising FRET ratio curve, often small or poorly fitted; inconclusive = mostly compound fluorescence or quenching in the first reads; inactive = flat curves in all reads;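 further: potency means the concentration at half of the fitted maximal effect; 0% = DMSO wells and 100% = buffer wells lacking importin beta; nearly all actives have a fitted effect of over 15% in size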
#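 Inhibition scored from the CFP 486 nm/YFP 530 nm FRET ratio 45 min after adding 0.125 microM importin beta to 50 nM Rango biosensor preincubated 5 min with compound (room temperature, PBS with DTT, Tween-20, BSA). No-importin wells as positive control.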
# Rango dissoc inh: inhibition of RanGTP-driven Rango-importin beta dissociation. Biochemical FRET Rango-importin beta, RanGTP-induced dissociation. 340,000 tested, 0.071% active. O95149+P62826. Potency, µM (highest dose often 46.1 µM), for inactives: at the highest dose activity change, negative = inhibition; active means falling FRET ratio curve, often poorly fitted, with flat reads before Ran was added; inconclusive means other falling curves, or compound fluorescence or quenching; inactive means flat or rising ratio curve;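 further: potency means the concentration at half of the fitted maximal effect; % of control where 0% means no effect; nearly all actives have a fitted effect of over 45% in size; -100% = wells without RanGTP and RCC1; the record marks most hits as doubtful in a second field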
#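 Rango/importin beta premix (0.1/0.25 uM final), PBS + 1 mM DTT + 0.02% Tween-20 + 0.1% BSA; cpd 5 min RT; FRET pre-read; + RanGTP-RCC1 (0.6 uM Ran, 2 mM GTP, 0.2 uM RCC1); 45 min RT; FRET post-read, ex 430, em 486/530 nm.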
# GLA inh pH 4.5: alpha-galactosidase A (human) inhibition, pH 4.5; P06280; 230,000 tested, under 10 active; activity change, negative = inhibition, % at 105 µM; purified enzyme, 4-MU-alpha-Gal fluorescence, pH 4.5; AID 1467; inconclusive = small, poorly fitted or top-dose-only inhibition, or a rising curve; inactive = flat fitted curve, though single readings scatter; no compound was filed as active;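 further: 0% = full activity with enzyme and -100% = basal without enzyme; dose as in the result columns while the protocol names 77 µM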
# Target sequence (P06280 whole entry, looked up): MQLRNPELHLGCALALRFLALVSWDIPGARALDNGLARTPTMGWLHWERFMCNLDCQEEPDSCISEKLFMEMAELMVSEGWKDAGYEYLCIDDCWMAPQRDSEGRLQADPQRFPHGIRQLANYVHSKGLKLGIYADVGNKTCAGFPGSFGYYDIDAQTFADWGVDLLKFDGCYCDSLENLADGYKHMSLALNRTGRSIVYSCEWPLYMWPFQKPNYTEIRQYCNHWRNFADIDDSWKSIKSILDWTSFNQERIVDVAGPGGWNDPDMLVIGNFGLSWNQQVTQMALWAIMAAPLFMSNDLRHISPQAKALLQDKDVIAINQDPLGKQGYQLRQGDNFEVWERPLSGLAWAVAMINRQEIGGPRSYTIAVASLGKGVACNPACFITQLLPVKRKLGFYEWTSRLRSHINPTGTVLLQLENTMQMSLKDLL
# miR-21 reporter: raises the signal of a miR-21 reporter. HeLa miR-21 FLuc reporter, luciferase, 48 h. Potency, µM (highest dose often 38.3 µM), inactives show top-dose reporter change, positive = more light. 340,000 tested, under 10 active. AID 2288; active = well fitted rising curve with a large enough effect; inconclusive = small, poorly fitted or top-dose-only effect; inactive = no such curve, though single readings can be large or run the other way;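 further: % of control where 0% means no effect; miR-21 action dims this reporter so a rising signal means less miR-21 action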
#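 Luminescence from a firefly luciferase reporter carrying a miR-21 binding site downstream, stably expressed under a CMV promoter in HeLa cells that make miR-21 endogenously, reports miRNA modulation after 48 h compound exposure up to approximately 40uM final.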
# * = called active by the depositor; ? = inconclusive; . = no result given; & = joins results of further samples. A portion of the library (hit frequency here may not be typical).
SMILES,Rango complex inh,Rango dissoc inh,GLA inh pH 4.5,miR-21 reporter
COc1ccc(OC)c(/C=C2\S/C(=N/NC(=O)c3ccc4ccccc4c3)NC2=O)c1,?,?,-21,-1%
CC(C)C(NC(=O)c1ccccc1Br)c1ccccc1 (configuration not stated),4.0%,1%,7,-2%
Cc1ccc(C)c(OCCn2cc(/C=C(/C#N)C(=O)NCC3CCCO3)c3ccccc32)c1 (configuration not stated),?,-11%,-8,3%
COc1ccc(O)c(N)c1,.,.,0,2%
O=C(CN(Cc1ccco1)S(=O)(=O)c1ccccc1)N/N=C/c1cccc(O)c1,-0.2%,32%,1,-8%
O=C(O)c1cc(-c2ccccc2)nc2ccccc12,-0.1%,?,1&-6,-15%&-10%
O=C(COc1ccc(Br)cc1)Nc1ccccc1N1CCCC1,-1.2%,18%,-1,-2%
Fc1ccc(C(c2nnnn2Cc2cccs2)N2CCN(C3CCCC3)CC2)cc1 (configuration not stated),0.8%,8%,-7,-2%
CCCCNC(=O)CNC(=S)N(CCCN1CCOCC1)Cc1cccs1,-3.1%,-1%,8,-6%
O=C(NCCCN1CCCCC1)c1ccc2c(c1)NC(=O)c1ccccc1S2,-0.4%,2%,.,5%
CCn1c(Oc2ccccc2)nc2c1c(=O)n(C)c(=O)n2C,?,2%,.,10%
CCN(CC)CCN(C(=O)CCS(=O)(=O)c1ccccc1)c1nc2cc3c(cc2s1)OCO3,0.9%,0%,.,1%
Cc1ccc(C(=O)N2CCCC(N3CCN(c4ccccc4C)CC3)C2)c(=O)[nH]1 (configuration not stated),-1.3%,0%,.,0%
CC(=O)Nc1ccc(SCC(=O)Nc2cc(C(C)(C)C)nn2-c2ccccc2)cc1,-1.6%,1%,6,-3%
O=C(CNCc1ccc(Cl)cc1)Nc1ccc(C(=O)N2CCCCC2)cc1,0.4%,1%,.,-5%
CC(Oc1ccccc1)C(=O)N1CCc2ccccc2C1 (configuration not stated),0.6%,-2%,.,-11%
CCCn1c(/C=C/c2ccccc2)nc2ccccc21,10%,11%,12,-26%&-45%
O=C(CNS(=O)(=O)c1ccccc1)OCC(=O)c1ccc(F)cc1,-1.6%,1%,.,2%
Cc1cc(C(=O)NNC(=O)c2ccc(Cl)cc2)no1,4.5%,11%,-6,-7%
CNC(=S)NCCc1ccccc1,-3.1%,-2%,-1,1%

# Pulled by structure from the list above:
SMILES,Rango complex inh,Rango dissoc inh,GLA inh pH 4.5,miR-21 reporter
COc1ccc(O)c(N)c1,.,.,0,2%
CCCn1c(/C=C/c2ccccc2)nc2ccccc21,10%,11%,12,-26%&-45%
Cc1ccc(C)c(OCCn2cc(/C=C(/C#N)C(=O)NCC3CCCO3)c3ccccc32)c1 (configuration not stated),?,-11%,-8,3%
O=C(CNCc1ccc(Cl)cc1)Nc1ccc(C(=O)N2CCCCC2)cc1,0.4%,1%,.,-5%
COc1ccc(OC)c(/C=C2\S/C(=N/NC(=O)c3ccc4ccccc4c3)NC2=O)c1,?,?,-21,-1%
CCCCNC(=O)CNC(=S)N(CCCN1CCOCC1)Cc1cccs1,-3.1%,-1%,8,-6%

# The results go on:
SMILES,Rango complex inh,Rango dissoc inh,GLA inh pH 4.5,miR-21 reporter
CC(=O)N(Cc1cc(=O)[nH]c2ccccc12)c1cccc(C)c1,4.3%,-4%,-4,-6%
O=C(CN1C(=O)C2CC=CCC2C1=O)Nc1nc(-c2ccc(F)c(F)c2)cs1 (configuration not stated),2.8%,-10%,.,.
O=C(NCc1ccco1)c1ccc(S(=O)(=O)N2CCCCCC2)cc1,-0.1%,-8%,.,.
CCCCOc1ccc(C(=O)OCC(=O)NC2CCCC2)cc1,0.8%,-2%,.,5%
Cc1cc(C(=O)N2CCN(C(c3ccccc3)c3ccccc3)CC2)no1,-1.8%,-8%,-13,-1%
CCOc1ccc(Cn2c(=O)sc3ccccc32)cc1,2.3%,41%,-8,-21%&-17%
COc1ccc(CCNC(=O)CCCCCN2C(=O)c3ccccc3C2=O)cc1OC,-0.6%,0%,-4,-2%
CN(C)CCn1cnc2c1c(=O)n(C)c(=O)n2C,-1.0%,14%,.,1%
CCC(C)NC(=O)CS(=O)Cc1nc(-c2cccc(OC)c2)oc1C (configuration not stated),2.7%,-10%,-6,-1%
CC(=O)c1c(C)[nH]c(C(=O)NCc2ccccc2Cl)c1C,5.1%,-11%,.,0%
CCn1ncc(Br)c1C(=O)Nc1cccc(C(C)=O)c1,-5.0%,1%,.,-7%
Cc1ccc(C(=O)C2CC2)c(C)c1,4.6%,-4%,.,.
COc1cc(NC(=O)C2CCCN(c3ncccn3)C2)cc(OC)c1 (configuration not stated),4.4%,-7%,9,-8%
O=C(NCCc1ccccc1)C(=S)N1CCCCC1,0.9%,-9%,2,-9%
CN(C(=O)COC(=O)c1cc[n+]([O-])cc1)c1ccccc1,-0.8%,6%,.,-1%
Cc1ccc(NC(=O)CS(=O)CC(=O)NC23CC4CC(CC(C4)C2)C3)cc1 (configuration not stated),3.0%,-1%,.,4%
CC(=O)Nc1cccc(NC(=O)CCCC2CCCCC2)c1,1.6%,-15%,.,2%
COC(=O)c1cccc(NC(=O)c2cnn(C)c2)c1,2.8%,-1%,.,.
CCCCCCCCN1[C@@H](CC(=O)OCC)c2ccc(C(F)(F)F)cc2S1(=O)=O,3.8%,2%,.,.
CCn1nnnc1NC(=O)c1cccc(OC)c1,-0.4%,11%,-25,-37%

# Part of the list above, reduced to Rango dissoc inh and miR-21 reporter:
Structure | Rango dissoc inh | miR-21 reporter
CCCCOc1ccc(C(=O)OCC(=O)NC2CCCC2)cc1 | -2% | 5%
Cc1cc(C(=O)N2CCN(C(c3ccccc3)c3ccccc3)CC2)no1 | -8% | -1%
CCOc1ccc(Cn2c(=O)sc3ccccc32)cc1 | 41% | -21%&-17%
COc1ccc(CCNC(=O)CCCCCN2C(=O)c3ccccc3C2=O)cc1OC | 0% | -2%
CN(C)CCn1cnc2c1c(=O)n(C)c(=O)n2C | 14% | 1%

# 4 structures from above, arranged by count of non-hydrogen atoms, low to high.
SMILES,Rango complex inh,Rango dissoc inh,GLA inh pH 4.5,miR-21 reporter
CCn1nnnc1NC(=O)c1cccc(OC)c1,-0.4%,11%,-25,-37%
CCOc1ccc(Cn2c(=O)sc3ccccc32)cc1,2.3%,41%,-8,-21%&-17%
CC(=O)c1c(C)[nH]c(C(=O)NCc2ccccc2Cl)c1C,5.1%,-11%,.,0%
Cc1cc(C(=O)N2CCN(C(c3ccccc3)c3ccccc3)CC2)no1,-1.8%,-8%,-13,-1%

# Other structures.
SMILES,Rango complex inh,Rango dissoc inh,GLA inh pH 4.5,miR-21 reporter
COCc1c(C(=O)OCC(=O)NCCN2C(=O)CSC2=O)oc2ccccc12,-3.0%,-9%,-2,0%
Cc1c(Cl)c(=O)oc2cc(OC(C)C)ccc12,-1.3%,0%,15,-26%
Cc1ccc(NCc2n[nH]c(=S)n2-c2ccccc2)cc1Cl,-1.8%,2%,0,-14%
Cc1cccc(OCC(=O)NCCCNC(=O)c2ccncc2)c1,1.0%,4%,.,-5%
COc1ccc(OC)c(C(c2nnnn2CCc2ccccc2)N2CCC(C(N)=O)CC2)c1 (configuration not stated),4.7%,25%,5,1%
COCCNC(=O)C(c1ccc(F)cc1)N(C(=O)CCC(=O)Nc1nccs1)c1ccc(C)cc1 (configuration not stated),?,0%,0,3%
C=CC(=O)Nc1ccc(N(C)c2ccnc(Nc3ccc(N4CCN(C)CC4)cc3)n2)cc1,0.2%,-9%,.,.
CCS(=O)(=O)N1CCCC(C(=O)NC2CCCCC2C)C1 (configuration not stated),-0.1%,5%,2,-2%
O=S(=O)(Nc1ccc(NS(=O)(=O)c2ccccc2)c(Cl)c1)c1ccccc1,?,-10%,.,.
Oc1cc(NCCc2cccnc2)cc2cccnc12,?,-11%,.,.
C(=N\N1CCN(Cc2cccc3ccccc23)CC1)/c1ccco1,1.9%,4%,-1,-12%
COc1ccc(-c2c(C)c3cc(O)ccc3oc2=O)cc1OC,2.5%,18%,.,-8%
O=C(NCC1CCCO1)C(C(=O)c1ccccc1)n1ccccc1=O (configuration not stated),-2.0%,-7%,3,-1%
Clc1ccc(Nc2nc(-c3cccnc3)cs2)cc1,13%,2%,-5,-52%
Cc1ccc2ccccc2c1NC(=O)c1ccco1,0.8%,0%,.,-1%
N#CCC(=O)N/N=C/c1cn(Cc2ccccc2C#N)c2ccccc12,0.8%,-7%,-3,1%
CC1CCCC(NC(=O)Cn2c(Cl)nc3c2c(=O)n(C)c(=O)n3C)C1C (configuration not stated),-0.9%,17%,.,.
COc1ccccc1CNC(=O)C1CCN(S(=O)(=O)N2CC(C)CC(C)C2)CC1 (configuration not stated),-0.1%,-1%,5,-4%
CCCCNC(=O)c1cc2nc(-c3ccccc3)cc(C(F)(F)F)n2n1,-1.0%,5%,.,0%
CC(C)Oc1ccc(C(=O)Nc2ccccc2N2CCOCC2)cc1,?,2%,-11,-1%
O=C(Nc1cccc(S(=O)(=O)N2CCCCC2)c1)c1ccc(OCC2CCCO2)cc1 (configuration not stated),-4.0%,0%,6,?
Cc1ccc(NC(=O)c2cc3c(CO)cnc(C)c3oc2=Nc2cccc(C(N)=O)c2)cc1,?,7%,.,0%
Oc1ccc(N=Nc2nccs2)c(O)c1,?,26%,-10,27%
C[C@H](CO)N1C[C@H](C)[C@@H](CN(C)Cc2ccccc2)Oc2c(NC(=O)c3ccncc3)cccc2C1=O,2.9%,-17%,.,.
COc1ccc(OC)c(NC2c3ccccc3C(=O)N2c2cccnc2)c1 (configuration not stated),-1.0%,0%,-3,-1%
COC(=O)c1ccccc1NS(=O)(=O)c1c(C)noc1C,2.1%,9%,.,-8%
Cc1cc(C)c(S(=O)(=O)NCCn2c(C)cc3ccccc32)c(C)c1,?,?,-2,4%
C#CCOC(=O)Nc1ccc(=O)n(Cc2c(Cl)cccc2Cl)c1,-4.9%,12%,-6,-6%
COc1cc(CN2CCC(C(=O)NC3CCCC3)CC2)ccc1O,7.9%,-6%,-5,-1%
O=C(Cn1c(=O)oc2cc(S(=O)(=O)N3CCCC3)ccc21)N1CCc2ccccc2C1,2.7%,14%,-3,-1%
Cc1ccccc1-c1noc(CCC(=O)NCCc2ccccc2)n1,-2.2%,1%,.,-3%
COc1ccc(N(CC(=O)Nc2c(C)n(C)n(-c3ccccc3)c2=O)S(=O)(=O)c2ccccc2)cc1OC,1.3%,3%,8,-9%
O=C(N/N=C/c1sc(N2CCCCC2)nc1-c1cccs1)c1cccnc1,?,?,-18,23%
CC(C)(C)c1ccc(NC(=O)COc2ccc(-n3ccnc3)cc2)cc1,0.6%,1%,3,27%
